# NPYLR7 ag: activates Aedes aegypti NPYLR7 receptor. AID 1259423. activation, % at 10 µM. actives 0.15% (n = 270,000). HEK293T NPYLR7/Galpha15, GCaMP6s calcium fluorescence; in the data active = activation above about 40%;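 also: 0% = vehicle and 100% = reference agonist at the receptor; some compounds past the cut are filed as inactive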
# NPYLR7 ag max-min: further read-out of NPYLR7 ag, marked with its call; activation, %; measured here: Max-Min RFU normalised activation; some inactives read as strong as hits;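 span of the calcium signal over five minutes; 0% = vehicle and 100% = native peptide agonist; compound fluorescence can raise it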
# The depositor's hits bear a star; & = joins results of further samples. Not all compounds are listed; rates above refer to the full screens.
1	C/C=C(/C)C(=O)OC1C(OC2(C)CCC(O)C3(C)CC=C(C(C)C)CC23)OC(C)C(O)C1O (centres undefined)
2	CCCCNC(=O)N1CC(C(=O)NCc2ccccc2F)CC(c2ccc(OC)c(OC)c2)C1 (centres undefined)
3	CC(C)CN(CC(=O)N(Cc1cccn1Cc1ccccc1)C1CCCCC1)S(=O)(=O)c1ccc([N+](=O)[O-])cc1
4	Cc1nc2ccc(Cl)cc2cc1C(=O)NCC(=O)OCC1CC1
5	C=CCN=c1scc(-c2ccccc2F)n1N=Cc1ccc2c(c1)OCCO2
6	COc1ccc(C2=NN(c3nc(-c4ccccc4)c4cc(Br)ccc4n3)C(c3ccc(Br)cc3)C2)cc1 (centres undefined)
Assay by compound,1,2,3,4,5,6
NPYLR7 ag,-7,7,23,7,4,17
NPYLR7 ag max-min,-18,5,17,5,0,27

7	CCCCCNC(=O)C1CC=CCC1C(=O)N1CCN(c2ccc(OC)cc2)CC1 (centres undefined)
8	CN(C)C(CNC(=O)NC1CCCCC1)c1ccsc1 (centres undefined)
9	O=C1NC2(CCCc3ccccc32)C(=O)N1Cc1nc2ccccc2o1 (centres undefined)
10	O=c1oc(-c2cccs2)nn1CC(O)c1ccccc1C(F)(F)F (centres undefined)
11	Cc1ccnc(NC(=O)c2coc(Br)c2)c1
12	COC(=O)C1CCCCN1C(=O)c1c(OC)cc(=O)n2c1CCN(Cc1ccc(Cl)cc1)CC2 (centres undefined)
Assay by compound,7,8,9,10,11,12
NPYLR7 ag,-9,7,-2,9,0,13
NPYLR7 ag max-min,-15,0,9,6,0,0

13	CN(N)c1nc(N2CCCC2)nc(N2CCCC2)n1
14	CSc1nnc(CSc2nc(C)cc(C)n2)n1CCc1ccccc1
15	CCn1ncnc1C(C)NC1CCSCC1 (centres undefined)
16	O=CN1CCCN(C(=O)c2ccc(-c3cc(-c4cccc5c4OCCO5)[nH]n3)cc2)CC1
17	CC(C)CNC(=O)NC(=O)Cn1ncc(Cl)c(Cl)c1=O
18	CCCC1(C)NC(=O)N(CCOc2c(C)cccc2C)C1=O (centres undefined)
Assay by compound,13,14,15,16,17,18
NPYLR7 ag,-2,-4,4,6,-1,11
NPYLR7 ag max-min,-14,-2,5,0,-4,5

# Record cards (already shown).
# Record of CCn1ncnc1C(C)NC1CCSCC1 (centres undefined) → NPYLR7 ag: 4; NPYLR7 ag max-min: 5
# Record of CC(C)CNC(=O)NC(=O)Cn1ncc(Cl)c(Cl)c1=O → NPYLR7 ag: -1; NPYLR7 ag max-min: -4
# Record of CSc1nnc(CSc2nc(C)cc(C)n2)n1CCc1ccccc1 → NPYLR7 ag: -4; NPYLR7 ag max-min: -2

# Next part:
19	CC(=O)c1ccccc1-c1ccc(C(=O)NC(C)(C)C)o1
20	CCC(CC)c1cc(C(=O)N2CC3CN(Cc4ccccc4)CC3C2)on1 (centres undefined)
21	O=C1C(=Cc2ccc3c(c2)OCO3)COc2ccccc21
22	CCCc1cc(C(=O)OCC)nn1C1CCN(S(=O)(=O)c2ccc(C(C)=O)cc2)CC1
23	CCCSc1ncccc1C(=O)N1CCC(O)(Cc2ccccc2)CC1
24	OC(Cc1ccccc1)Cn1cnc(-c2ccccc2)c1-c1ccco1 (centres undefined)
Assay by compound,19,20,21,22,23,24
NPYLR7 ag,-4,7,0,-6,7,17
NPYLR7 ag max-min,-5,4,-5,-7,6,9

# Fetched one by one from the entries so far (two):
19	CC(=O)c1ccccc1-c1ccc(C(=O)NC(C)(C)C)o1
23	CCCSc1ncccc1C(=O)N1CCC(O)(Cc2ccccc2)CC1
Assay by compound,19,23
NPYLR7 ag,-4,7
NPYLR7 ag max-min,-5,6

# More compounds
25	CS(=O)(=O)NC1CC(=O)N(CCCc2ccccc2)C1 (centres undefined)
26	CN(C(=O)c1ccc(N2C(=O)CCC2=O)cc1)c1nnc(C23CC4CC(CC(C4)C2)C3)s1
27	CN(CC(=O)NCc1ccco1)C(=O)c1ccc2c(c1)CCC2
28	COc1ccc(CN2CCN(Cc3cc(C(C)C)n[nH]3)CC2CCO)cc1C (centres undefined)
29	C=CCN(C(=O)c1ccc(C)c(OC)c1)c1ccccc1
30	CCOC(=O)N1CCN(C(=O)c2cc3n(n2)CCN(Cc2ccc(OC)cc2)C3=O)CC1
Assay by compound,25,26,27,28,29,30
NPYLR7 ag,19,-1,6,3,-5,10
NPYLR7 ag max-min,10,-1,4,0,-7,20

31	Cc1ccc(C)c(Cn2c(=O)c3c(nc4n(CCCn5ccnc5)c(C)cn34)n(C)c2=O)c1
32	O=C(NC1CCN(Cc2ccccc2)CC1)c1cc(-c2ccc(F)cc2)nc2cc(-c3ccc(Cl)cc3)nn12
33	CCCCN(CC(=O)N1CC(=O)N(c2cccc(C)c2)C1)S(=O)(=O)c1ccc(OC)cc1
34	Cc1ccc(S(=O)(=O)N2CCCC(C(=O)NC3CCCC[C@H]3NC(=O)c3ccccc3C)C2)cc1 (some centres undefined)
35	Cc1ccccc1-c1nc2ccc(Br)cn2c1NC1CCCCC1
36	CC(C)C(NC(=O)c1ccc(F)cc1)C(=O)N1CCc2sccc2C1 (centres undefined)
Assay by compound,31,32,33,34,35,36
NPYLR7 ag,9,21,-1,-2,9&29,1
NPYLR7 ag max-min,8,15,8,-1,8&29,1

37	CS(=O)(=O)NC1CCN(C(=O)CCC(=O)NC2CCCC2)CC1
38	COc1ccc(CCNC(=O)CN2CN(c3ccccc3)C3(CCN(C(=O)c4ccc5c(c4)OCO5)CC3)C2=O)cc1OC
39	CN1C(=CC=NNC(=O)COc2ccc(Cl)cc2Cl)C(C)(C)c2ccccc21
40	Cc1ccc(-n2ccc3c(cnc4nc5ccccc5n43)c2=O)cc1
41	CC1CCCCC1OCCNS(=O)(=O)c1cc2c(cc1Cl)NC(=O)CO2 (centres undefined)
42	O=C(C1=C(O)C(=O)N(CCN2CCOCC2)C1c1ccc(Cl)cc1)c1ccco1 (centres undefined)
Assay by compound,37,38,39,40,41,42
NPYLR7 ag,-5,39,-2,-2,2,-3
NPYLR7 ag max-min,-6,30,-8,2,36,-3

43	CCNC(=O)N(C)CCCN1C(=O)C(CC)SC1c1ccccc1Cl (centres undefined)
44	Cc1ccc(-c2csc3ncn(CCC(=O)N4CCC4)c(=O)c23)cc1
45	CCOc1ccc(C(=O)Nc2c(N)nc(SCc3c(F)cccc3Cl)[nH]c2=O)cc1
46	CN1CCCn2nc(C(=O)N(C)Cc3ccccc3-n3cccn3)cc2C1
47	C=C(Br)CNC(=O)COc1ccc(C(N)=O)cc1
48	CCC(C)NCC(=O)N(Cc1ccccc1)Cc1cccs1 (centres undefined)
Assay by compound,43,44,45,46,47,48
NPYLR7 ag,14,18,0,12,18,-10
NPYLR7 ag max-min,27,13,1,8,16,-18

49	CCN(CC)CCOc1ccc(/C(=C(/Cl)c2ccccc2)c2ccccc2)cc1
50	CC(C(=O)NCc1ccccc1F)N(c1ccccc1)S(C)(=O)=O (centres undefined)
51	CN1CCN(S(=O)(=O)c2ccc(Cl)cc2)CC1
52	COc1cccc(N2CC(C(=O)NC(C)c3cccc4ccccc34)CC2=O)c1 (centres undefined)
53	CC1(C(=O)NCCC#N)CCN1C(=O)C1(c2ccccc2)CC1 (centres undefined)
54	CC(C)c1nc(CN(C)C(=O)C2CCOC2)no1 (centres undefined)
Assay by compound,49,50,51,52,53,54
NPYLR7 ag,-3,4,3,3,7,3
NPYLR7 ag max-min,-9,2,29,2,12,4

55	O=C(Nc1ccc(Cl)cc1)Nc1nnc(/C=C/c2ccccc2)s1
56	O=C(c1ccc(F)cc1)N1CCN(c2nc(CN3CCc4ccccc4C3)cc(=O)[nH]2)CC1
57	NC(N)=NN=Cc1cc2c(cc1[N+](=O)[O-])OCO2
58	Cc1ccn2c(NC(=O)CC(C)(C)C)c(-c3ccccc3)nc2c1
59	CC1CCCC(=NNc2ccc(S(=O)(=O)N3CCCCC3)cn2)C1 (centres undefined)
60	CCOC(=O)c1ccc(N=C2SC(C(=O)Nc3cccc(Cl)c3)CC(=O)N2C)cc1 (centres undefined)
Assay by compound,55,56,57,58,59,60
NPYLR7 ag,-7,4,5,-7,6,2
NPYLR7 ag max-min,-9,3,9,-5,12,-1

61	O=[N+]([O-])C1C(=Nc2ccc(Br)cc2)NN=C1c1nnco1 (centres undefined)
62	CCN(Cc1ccncc1)Cc1cccc(C(=O)Nc2cc(C)nn2C)c1
63	Cc1cc(C)n(-c2ccc(Nc3ccc(NC(=O)Cc4ccccc4)cc3)nn2)n1
64	CCC(CC)NC(=O)c1[nH]c(C)c(C(C)=O)c1C
65	COc1ccc(-c2nc(C)ncc2C)c2ccc(C)nc12
66	Cc1ccc2c(c1)[C@@H]1[C@H](CO2)CN(C)C(=O)CCN1C(=O)CC1CCCC1
Assay by compound,61,62,63,64,65,66
NPYLR7 ag,-3,2,16,12,14,0
NPYLR7 ag max-min,-4,7,8,17,10,8

67	COc1ccc(-n2nc(-c3cccs3)cc2C(=O)O)cc1
68	COc1cc(C)c(S(=O)(=O)Nc2cccc(C(=O)N3CCCC(O)C3)c2)c(C)c1 (centres undefined)
69	C/C(Nc1ccc2oc(=O)ccc2c1)=C1/C(=O)CC2[C@@H]1C2(C)C (some centres undefined)
70	CC(=O)N1N=C(c2ccccc2O)CC1c1c(F)cccc1Cl (centres undefined)
71	CC(Oc1ccc(Cl)cc1Br)C(=O)N(C)c1cccc(C#N)c1 (centres undefined)
72	O=C1CCCN1CCC(=O)N1CCCC(Nc2ccc(F)cc2)C1 (centres undefined)
Assay by compound,67,68,69,70,71,72
NPYLR7 ag,-9,4,8,-3&2,2,4
NPYLR7 ag max-min,0,1,10,-5&-3,1,1

73	Cc1ccc(NC(=O)N(CCC#N)C(C)C)cc1Cl
74	Cc1ccc(S(=O)(=O)NCc2ccc3c(c2)OCO3)c(C)c1
75	CS(=O)(=O)N1CCCN(C(=O)CN2CCc3sccc3C2c2cccc(F)c2)CC1 (centres undefined)
76	CSc1ccc(COc2coc(CN3CCN(C(=O)c4cc(C(F)(F)F)cc(C(F)(F)F)c4)CC3)cc2=O)cc1
77	COc1ccc(Cn2ccnc2CNCCN2CCOCC2)cc1
78	CN(C(=O)CCn1cncn1)C1CCc2ccccc21 (centres undefined)
Assay by compound,73,74,75,76,77,78
NPYLR7 ag,1,3,13,28,-5,0
NPYLR7 ag max-min,0,0,2,18,5,0

79	Cc1nc(C)c(C(=O)N(CC2CCN(Cc3ccccc3C)CC2)CC2CCCO2)s1 (centres undefined)
80	CCCCCCOc1ccc(C(=O)OC)c(C#N)c1
81	CCOC(=O)c1c(C)c(C(=O)CN(C(=O)c2cccc(Br)c2)C2CC2)c(C)n1C
82	O=c1oc2ccccc2n1CCN1CCCC(Cn2ccnc2)C1 (centres undefined)
83	O=C1OC(Cc2ccccn2)C(=O)C1C1=NC2CCCCC2N1 (centres undefined)
84	O=C1Nc2ccccc2Oc2ccc(NS(=O)(=O)C3CCCCC3)cc21
Assay by compound,79,80,81,82,83,84
NPYLR7 ag,15,3,-5,22,0,3
NPYLR7 ag max-min,8,2,-3,9,4,1

85	COC(=O)CCN(c1cccc(F)c1)S(=O)(=O)c1cnn(C)c1
86	COc1ccc2[nH]cc(CCN3C(=O)c4ccccc4C3=O)c2c1
87	Cc1ccc(-n2nnnc2SCC(=O)NC(C)c2cccs2)cc1 (centres undefined)
88	CC1(C(=O)NCc2ccc(C(F)(F)F)cc2)CCN1Cc1ccc(-c2ccccn2)cc1 (centres undefined)
89	CCNc1cc(C)nc(N2CCN(C(=O)c3ccc(C)cc3)CC2)n1
90	CCCCOc1ccc(S(=O)(=O)N2CCN(c3c(-c4ccccc4)cnc4ncnn34)CC2)cc1
Assay by compound,85,86,87,88,89,90
NPYLR7 ag,-5,5,1,9,0,-3
NPYLR7 ag max-min,-5,3,-1,0,-4,-4

91	CCOC(=O)C1CCCN(C(=O)c2cc(-c3ccccc3OC)n3nc(C)c(-c4ccccc4)c3n2)C1 (centres undefined)
92	NS(=O)(=O)c1ccc(N2CCN(CCCc3cn[nH]c3)CC2)cc1
93	CCOC(=O)c1c(C)[nH]c(C(=O)CSc2nc(C)nc3sc4c(c23)CCC4)c1C
94	O=C(Nc1ccccc1)NC1CCN(c2ccccc2C(=O)N2CCOCC2)CC1
95	COc1ccccc1-c1ncc(CN2CCC3(CCNCC3)CC2)cn1
96	CC(NCc1ccc(C2CC2C)o1)c1ccc(-n2ccnc2)cc1 (centres undefined)
Assay by compound,91,92,93,94,95,96
NPYLR7 ag,-4,0,-3&5,23,-6,15
NPYLR7 ag max-min,3,0,-2&9,18,-11,20

97	O=S(=O)(c1ccc2c(c1)OCCO2)N1CCCC1c1ccc2c(c1)OCCO2 (centres undefined)
98	O=C(O)C(CCCCN1C(=O)C2C3CCC(C3)C2C1=O)N1C(=O)C2C3CCC(C3)C2C1=O (centres undefined)
99	CC(C)(C)c1ccc(-c2nc(NC(=O)C(=O)NC3CC3)n[nH]2)cc1
100	CC(COc1ccccc1)N(CCCl)Cc1ccccc1 (centres undefined)
101	COCCN(CCC(=O)NCCC(c1ccccc1)c1ccccc1)c1nc(Cc2ccc(F)cc2)ns1
102	CNc1cc(-c2ccc(O)cc2C)ncn1
103	Cc1nc2sccn2c(=O)c1NC(=O)C(C)Oc1ccc2c(c1)OCO2 (centres undefined)
104	Cc1nc2c(c(=O)[nH]1)CCN(S(=O)(=O)NCc1ccccc1)CC2
105	CCCCc1nc2sc3c(=O)n(N)cnc3c2c2c1CCC2
Assay by compound,97,98,99,100,101,102,103,104,105
NPYLR7 ag,4,5,8,-3&3&-2&1&-7,-1,2,0,1,1
NPYLR7 ag max-min,2,0,5,-4&6&-6&2&-12,9,0,-2,-4,3
